# StopGo RLuc: lowers the Renilla signal of an FMDV 2A StopGo reporter. HEK cells with a luciferase reporter of 2A StopGo recoding. Potency, µM (doses to about 57.5 µM), without a hit: top-dose signal change, negative = less light. 120,000 compounds, 0.32% hits; active means well fitted falling curve with a large enough effect; inconclusive means small, poorly fitted or top-dose-only effect; inactive means no such curve, though single readings can be large or run the other way; also: nearly all actives have a fitted effect of over 55% in size; overnight with compound
# 2A firefly: lowers the firefly signal of an FMDV 2A StopGo reporter; HEK cells with a luciferase reporter of 2A StopGo recoding; Potency, µM (doses to about 57.5 µM), for the others: at the highest dose signal change, negative = less light; 120,000 compounds, 0.23% hits; AID 1745856; active = well fitted falling curve with a large enough effect; inconclusive = small, poorly fitted or top-dose-only effect; inactive = no such curve, though single readings can be large or run the other way; also: nearly all actives have a fitted effect of over 60% in size; overnight with compound
# Active calls of the source: *; ? = inconclusive; & = joins results of further samples; [ ] = another dose, or the depositor's remark. % is scaled to controls: 0 for no effect and ±100 for the full control effect; potency is read from the fitted curve at half-maximal effect.
SMILES	2A firefly	StopGo RLuc
Cc1c(NS(=O)(=O)c2cccc(C(=O)O)c2)c(=O)n(-c2ccccc2)n1C	-5%	-8%
COCCC(C)NC(=O)Nc1ccc(C#N)cc1 (stereo not given)	0%	0%
O=C(NCCCNc1ccccc1)NCCc1ccccn1	8%	5%
Cc1ccc(OCCn2nnc3sc4c(c3c2=O)CCC(C(C)(C)C)C4)cc1 (stereo not given)	-1%	-9%
CCCOc1ccc(-c2nc(C#N)c(N3CCN(C)CC3)o2)cc1	8%	2%
Cc1ccoc1C(=O)NCc1cccc(C(F)(F)F)c1	109%[activator]	24%
CN(C)c1ccc(/C=N/NC(=O)c2ccc3ccccc3c2)cc1	133%[activator]	49%[activator]
C=CCN1CCN(C(=O)Cc2ccc(F)cc2)CC1	51%[activator]	-1%
CCC1CCCCN1CCCNC(=O)c1ccc2c(c1)c(C)c(C)n2CC (stereo not given)	-20%	0%
CCOC(=O)c1nc(N(C)c2cc(C)ccc2C)c2ccccc2n1	?	?
CN1CCN(C2Cc3ccccc3Sc3ccc(Cl)cc32)CC1 (stereo not given)	?	-13%
COc1ccc(-n2c(SCc3ccccc3F)nc3c([nH]c4ccccc43)c2=O)cc1	4%	-8%

# In another format: results already given
# Every second line gives: 2A firefly	StopGo RLuc
COCCC(C)NC(=O)Nc1ccc(C#N)cc1 (stereo not given)
 : 0%	0%
O=C(NCCCNc1ccccc1)NCCc1ccccn1
 : 8%	5%
Cc1ccc(OCCn2nnc3sc4c(c3c2=O)CCC(C(C)(C)C)C4)cc1 (stereo not given)
 : -1%	-9%

# The results go on:
SMILES	2A firefly	StopGo RLuc
O=C(Nc1ccc2oc(-c3cccnc3)nc2c1)c1ccc(-c2ccc(Cl)cc2)o1	9%	-3%
COc1cc(OC)c2c(C)c(CC(=O)Nc3ccc(F)cc3)c(=O)oc2c1	-1%	5%
O=C(Oc1ccccc1)c1ccccc1O	10%&-13%	2%&-5%
CC(C)c1noc(COc2ccc(C(=O)NC3CC3)cc2)n1	70%[activator]	-15%
CSc1ccc(C(C)NC(=O)c2ccccc2Br)cc1 (stereo not given)	0%	23%
CSC(C)C(=O)NC(C)C1CCCO1 (stereo not given)	12%	6%
COc1ccccc1-c1nnc(C2CCN(C(=O)c3cccc(C)c3)CC2)o1	-11%	-18%
CCN1CCN(c2csc3ccc(Cl)cc3c2=O)CC1	103%[activator]	55%[activator]
CC(NC(=O)C1CCN(S(=O)(=O)c2ccc(F)cc2)CC1)c1ccccc1 (stereo not given)	-10%	7%
COc1cccc(C(=O)COC(=O)c2ccc3c(c2)OCO3)c1	97%[activator]	-12%
CCn1c(C)cc(C(=O)Cn2nc(C)c(C)c(C#N)c2=O)c1C	9%	-1%
COCCn1c(SCC(=O)c2ccc(OC)c(OC)c2)nnc1-c1ccc(Cl)cc1	1%	7%
CCOC(=O)N1CCN(C(=O)c2ccc3c(c2)N(Cc2ccccc2F)C(=O)c2ccccc2S3(=O)=O)CC1	-10%	-2%
CCCCNC(=O)CSc1nc2cc3c(cc2c(=O)n1Cc1ccc(C(=O)NCCc2ccc(OC)c(OC)c2)cc1)OCO3	-5%	3%
COc1ccc(S(=O)(=O)Nc2c(NC3CCCCC3)c3ccccc3oc2=O)cc1Cl	-5%	20%
COc1ccc(-c2nc(CNC(=O)Nc3cc(OC)ccc3OC)c(C)o2)cc1	8%	-5%
CC(CCN1CCC(C(O)(c2ccccc2)c2ccccc2)CC1)Oc1ccc(C#N)cc1F (stereo not given)	-4%	-1%
COc1cc(C(=O)Nc2cc(C)c(O)c(-c3nc4ccccc4s3)c2)cc(OC)c1OC	43%[activator]	9%
Cc1ccc(C)c(C(=O)CC2(O)C(=O)N(CN3CCOCC3)c3ccccc32)c1 (stereo not given)	20%	22%
Cc1cc(Nc2cccc(Cl)c2)nc2ccc(NC(=O)c3cccnc3)cc12	?	?
CCOC(=O)c1ccc(OC(=O)c2ccccc2)cc1	23%	-16%
CC(C)CCNC(=O)CCC(=O)NC(C)(C)C	?	?
CC(C)=CC(=O)NC12CC3CC(CC(C3)C1)C2	20%	23%
COc1cc(NC(=O)c2cnc(NCc3ccc4c(c3)OCO4)nc2C)cc(OC)c1	4%	4%
COc1ccc(CNC(=O)NCc2noc3ccc(C)cc23)cc1	0%	0%
N#C/C(=C/NC(=O)c1ccccc1)C(=O)N1CCOCC1	22%	6%
O=C(Nc1ccccc1C(F)(F)F)Nc1c(NC2CCCC2)c2ccccc2oc1=O	2%	1%
Cc1nc(CSc2ccccc2C(=O)N2CC=C(c3ccccc3)CC2)cs1	-1%	26%
O=C(CNc1ccc(C(F)(F)F)cc1)NCc1ccc(Cl)cc1	-9%	-11%
CC(=O)N1CCN(S(=O)(=O)c2cccc(C(=O)OCc3csc(-c4ccccc4)n3)c2)CC1	8%	-6%
COc1cc(NC(=O)CCn2cnc3onc(-c4ccccc4Cl)c3c2=O)cc(OC)c1	?	?
[O-][n+]1ccccc1SCC1CCCCC1	0%	8%
Cc1ccc(-c2noc(-c3ccccc3NC(=O)C3CC(=O)N(c4ccc(C)cc4)C3)n2)cc1 (stereo not given)	6%	-3%
O=C(COCc1cc(-c2ccc(F)cc2)on1)Nc1cccc(Cl)c1Cl	-19%	-9%
Cc1ccc(-c2nnc(Nc3ccc(Br)cc3)c3ccccc23)cc1S(=O)(=O)N1CCOCC1	22%	0%
O=C(COc1ccc(Cl)cc1)Nc1nnc(S(=O)(=O)N2CCc3ccccc32)s1	-14%	-18%

# Complete entries, quoted from the list. Values in the order: 2A firefly	StopGo RLuc
# Cc1ccc(-c2nnc(Nc3ccc(Br)cc3)c3ccccc23)cc1S(=O)(=O)N1CCOCC1 as listed: 22%	0%
# O=C(COCc1cc(-c2ccc(F)cc2)on1)Nc1cccc(Cl)c1Cl as listed: -19%	-9%
# COc1ccc(CNC(=O)NCc2noc3ccc(C)cc23)cc1 as listed: 0%	0%
# O=C(COc1ccc(Cl)cc1)Nc1nnc(S(=O)(=O)N2CCc3ccccc32)s1 as listed: -14%	-18%
# N#C/C(=C/NC(=O)c1ccccc1)C(=O)N1CCOCC1 as listed: 22%	6%

# Further structures:
SMILES	2A firefly	StopGo RLuc
CCOc1ccc(OCC)c(NC(=O)CCC(=O)N2CCOc3ccccc32)c1	-4%	2%
COc1ccc(C)cc1N(C)C(=O)Cn1nc(Cc2ccncc2)c2ccccc2c1=O	-9%	5%
COc1cccc(NC(=O)CSc2nnc(-c3cccc(OC)c3)o2)c1	201%[activator]	9%
CCN(CC)CCNC(=O)CN1N=C(c2ccc(OC)cc2)CCC1=O	-21%	-18%
Cc1cccc(CN2CCN(C(=O)c3n[nH]c(=O)c4ccccc34)CC2)c1	14µM*	?
O=C(Cn1nc(-c2ccccc2)nc(Cc2ccccc2)c1=O)Nc1ccccc1	12%	28%
Cc1ccc(C(=O)n2nc(C)c(S(=O)(=O)N3CCCCCC3)c2C)cc1	-11%	-6%
O=C(Cn1nc2c(cc1=O)CCCC2)Nc1ccccc1C(F)(F)F	27%	21%
COCc1nnc(NC(=O)C2CC(=O)N(c3cccc(C)c3)C2)s1 (stereo not given)	-9%	-6%
Cc1nc(CCNC(=O)c2ccccn2)cs1	0%	6%
Cc1ccc(NC(=O)c2sc3nc4c(cc3c2N)CN(Cc2ccccc2)CC4)cc1	104%[activator]	?
CC(C)(C)OC(=O)N1CCC(c2c(C(=O)N3CCN(c4ccccn4)CC3)cnn2-c2ccccc2Cl)CC1	-19%	4%
O=C(COc1ncnc2ccccc12)Nc1cc(F)ccc1F	21%	7%
Cc1ccccc1CN1C(=O)C(C)N=C(c2ccccc2)c2ccccc21 (stereo not given)	-12%	13%
COc1cc(OC)c(NC(=O)c2cc3c(=O)oc4ccc(C)cc4c3s2)cc1Cl	-16%	-1%
CC1=C(C(=O)NCc2cccc(F)c2)C2(CCCCC2)OC1=O	19%	-3%
CCCCn1c(=O)n(CC(=O)Nc2ccc(F)c(F)c2)c(=O)c2c1ncn2CCC(C)C	0%	11%
Cc1ccc(-c2nc3ccc(Cl)cn3c2Nc2ccc3c(c2)OCCO3)s1	150%[activator]	1%
CCN(CC)C(=O)c1ccc(NC(=O)COc2ccc3c(C)cc(=O)oc3c2)cc1	5%	-2%
COc1cc(C)c(C)cc1S(=O)(=O)n1ccnc1C	0%	141%[activator]
Cc1ccc(S(=O)(=O)c2cnc3cc4c(cc3c2N2CCOCC2)OCCO4)cc1	10%	219%[activator]
O=C(CSc1ccc2ccccc2c1)c1ccc2c(c1)CCC2	?	1%
CCCOc1c(Cl)cc(C(=O)N(Cc2cccc(OC)c2)C2CCS(=O)(=O)C2)cc1Cl (stereo not given)	8%	0%
COc1ccc(C2C(C(=O)Nc3ccccc3)=C(C)Nc3c(C(=O)Nc4ccccc4)cnn32)cc1 (stereo not given)	-18%	-19%
Cc1ccc(C(=O)NC(C(=O)Nc2ccccc2C)C(C)C)cc1 (stereo not given)	12%	4%
CCOc1ncccc1C(=O)OCc1nnc(-c2ccc(Cl)cc2)o1	36%	70%[activator]
Cc1ccc(S(=O)(=O)c2nnn3c2nc(N2CCC(C)CC2)c2cc(Cl)ccc23)cc1C	-3%	-5%
CCc1ccc2nc(-c3cccnc3)cc(C(=O)O)c2c1	25%	7%
O=C(CCc1ccccc1)NC1(C(F)(F)F)C(=O)Nc2c1c(=O)[nH]c(=O)n2CCc1ccccc1 (stereo not given)	-7%	-15%
COC(=O)c1cc2oc3ccccc3c2n1CC(=O)Nc1ccc(N(C)C)cc1	13%	-12%
CCN(c1ccc(NC(=O)c2nccnc2N)cc1)C(C)C	180%[activator]	-3%
O=C(CSc1ccc2c(c1)OCCCO2)c1c[nH]c2ccccc12	72%[activator]	-9%
O=C(COc1cc(Cl)ccc1Cl)Nc1ccc(Cl)cc1C(=O)c1ccccc1	-11%	-8%
CCOC(=O)c1cc(-c2ccc(C)cc2)n(CC(=O)Nc2ccc(OC)cc2OC)c1C	-15%	7%
O=C(CCNS(=O)(=O)c1cccc2nonc12)Nc1ccc(F)cc1	-10%	31%[activator]
COC(=O)c1ccccc1S(=O)(=O)N1CCC(C(=O)NCc2ccccn2)CC1	5%	6%
CCCCC(=O)N1CCN(c2nc3c(OC)ccc(C)c3s2)CC1	8%	-3%
CCc1ccc(-c2nc3cc(NC(=O)c4ccc(F)cc4)ccc3o2)cc1	-14%	-9%
CCCn1nc(C(=O)OCC(=O)Nc2ccc(Cl)cn2)c2ccccc2c1=O	-4%	-7%
O=C(COc1coc(CN2CCN(c3ccccc3)CC2)cc1=O)c1ccccc1	5%	-1%
Cc1ccc(-n2ncc(C(=O)N3CCN(Cc4ccccc4)CC3)c2C2CCN(C(=O)OC(C)(C)C)CC2)cc1	41%[activator]	7%
Cc1ccc(OCC(=O)NC2=NCCS2)cc1C	166%[activator]	-3%
CC(C)C(=O)Nc1c(-c2cc(=O)oc3ccc(Cl)cc23)oc2ccccc12	5%	2%
O=C(NCc1cccnc1)C1CCN(Cc2cc3ccccc3n2Cc2cccc(Cl)c2)CC1	-19%	-19%
Cc1ccc(NC(=O)C(Cc2ccccc2)n2cccc2)cc1 (stereo not given)	10%	2%
O=C(Cn1nc2c(cc1=O)CCCC2)Nc1ccc(Br)cc1F	3%	-10%
Cc1nc(-c2ccc(CNC(=O)c3ccccn3)s2)cs1	0%	24%
CC(C)c1nnc(NC(=O)c2cc(-c3ccccc3)nc3ccccc23)s1	51%[activator]	9%
CC(C)CNC(=O)C(C)Oc1ccc(C#N)cc1 (stereo not given)	-1%	-12%[1.06 µM]
CN(Cc1ccsc1)C(=O)CSc1nnc(COc2ccc(Cl)cc2)n1C	7%	9%
COCCCNC(=O)c1nn(-c2ccc(C)cc2)c(=O)n(C)c1=O	-8%	-5%
CC(C)(C)C(=O)Nc1cccc(CN2CCSCC2)c1	26%	14%
OCCN1CCN(CCCN2c3ccccc3C=Cc3ccccc32)CC1	4%[11.5 µM]	-12%
Cn1cc(C(C(=O)O)N2CCN(C(c3ccccc3)c3ccccc3)CC2)c2cc(C(=O)O)ccc21 (stereo not given)	-4%	-13%
COc1ccc(-n2nnc(-c3nsc(NC(=O)c4ccc(C)c(C)c4)n3)c2C)cc1Cl	36%[activator]	21%
Cc1ccc(NC(=O)C(=O)c2c[nH]c3ccccc23)cc1Cl	196%[activator]	12%
C=CCOc1ccc(C(=O)Nc2ccc(F)cc2)cc1	199%[activator]	8%
COc1cc(OC)cc(C(=O)OCC2C(COC(=O)c3cc(OC)cc(OC)c3)C2(Cl)Cl)c1 (stereo not given)	-4%	11%
CCOC(=O)c1c(-c2ccccc2)oc2ccc(NS(=O)(=O)c3cc(C)c(C)cc3C)cc12	-11%	-10%
O=C(O)Cc1ccc(F)c2ccccc12	7%	4%

# Further entries.
SMILES	2A firefly	StopGo RLuc
Cc1ccc(-n2nc(C(=O)NCc3ccc(F)cc3Cl)c3c4ccccc4n(C)c3c2=O)cc1	0%	-11%
CCOc1ccc(Nc2nn(-c3ccc(OC(F)(F)F)cc3)nc2C(C)=O)cc1	-13%	7%
CCC(Oc1ccccc1)C(=O)Nc1ccc(O)c(-c2nc3cc(C)ccc3o2)c1 (stereo not given)	0%	0%
CC(C)CCNc1nc(-c2ccc(S(=O)(=O)N3CCOCC3)cc2)cs1	?	?
COc1cccc(CNC(=O)COC(=O)c2c(F)cccc2F)c1	19%	7%

# A portion of the library; rates above refer to the full screens.
